KCNQ2 pot – potentiators of rat KCNQ2 potassium channel; Potassium voltage-gated channel subfamily KQT member 2 (Rattus norvegicus), O88943; CHO-K1 KCNQ2, FluxOR thallium flux fluorescence; stronger effect = higher value; B-score at 10 µM; 310,000 compounds, 0.54% hits; AID 2239, 2010;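 active means fluorescence ratio B-score at least 3 SD of library B-scores, with initial fluorescence B-score within 3 SD, cut at about 5.3 in these data; same plate scores as AID 2156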;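 further: B-score of peak minus minimum over baseline fluorescence ratio after K+ and Tl+ stimulus; positive B-score means potentiation of KCNQ2 with more thallium influx and brighter signal; only the inactives scoring about 0 or higher are listed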
Target sequence (O88943 whole entry, looked up): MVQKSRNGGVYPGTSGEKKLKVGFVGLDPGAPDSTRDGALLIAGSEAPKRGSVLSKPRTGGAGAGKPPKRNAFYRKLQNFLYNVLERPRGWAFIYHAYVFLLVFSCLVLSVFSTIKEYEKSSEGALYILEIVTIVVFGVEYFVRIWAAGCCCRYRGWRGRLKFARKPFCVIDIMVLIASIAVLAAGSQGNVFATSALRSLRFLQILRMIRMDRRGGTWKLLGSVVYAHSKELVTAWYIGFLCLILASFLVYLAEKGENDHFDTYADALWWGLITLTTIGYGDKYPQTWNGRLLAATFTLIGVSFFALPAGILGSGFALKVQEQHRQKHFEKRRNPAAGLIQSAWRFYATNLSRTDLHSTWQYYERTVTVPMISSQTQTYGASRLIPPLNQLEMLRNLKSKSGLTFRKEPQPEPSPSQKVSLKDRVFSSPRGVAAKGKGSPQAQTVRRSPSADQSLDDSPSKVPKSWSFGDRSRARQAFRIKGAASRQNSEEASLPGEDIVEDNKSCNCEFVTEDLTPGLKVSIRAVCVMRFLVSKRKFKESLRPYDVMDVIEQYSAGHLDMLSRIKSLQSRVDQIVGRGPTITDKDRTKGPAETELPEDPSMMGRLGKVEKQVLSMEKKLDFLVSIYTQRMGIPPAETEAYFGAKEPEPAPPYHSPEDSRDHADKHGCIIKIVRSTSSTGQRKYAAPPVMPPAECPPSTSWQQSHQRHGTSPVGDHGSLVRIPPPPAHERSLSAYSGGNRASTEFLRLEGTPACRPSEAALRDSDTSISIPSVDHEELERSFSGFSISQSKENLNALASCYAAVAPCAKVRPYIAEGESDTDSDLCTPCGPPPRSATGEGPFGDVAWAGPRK
KCNQ2 pot baseline – further read-out of KCNQ2 pot, marked with its call; B-score; compound at 10 µM; measured here: initial fluorescence intensity artifact check;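 brightness before thallium and not channel activity; 0 = typical well and far values either way flag optical interference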
Starred values were filed as active, the others as inactive. The list is partial; rates above refer to the full screens.

SMILES	KCNQ2 pot	KCNQ2 pot baseline
CC(C)Cc1nc(SCC(=O)N2CC(C)OC(C)C2)c2c(=O)n(C)c(=O)n(C)c2n1 (stereo not drawn)	1.9	0.14
COc1ccc(OCCSc2ncn[nH]2)cc1	0.05	-0.53
Fc1ccccc1COc1ccccc1CNCc1ccncc1	0.61	1.2
O=C(Nc1ccccc1N1CCOCC1)c1ccc(Cl)nc1	1.5	-2.4
CCOC(=O)C(C)(C)N(Cc1ccc(Cl)cc1)S(=O)(=O)c1ccc(Cl)c([N+](=O)[O-])c1	0.36	-0.23
COc1cc2oc3ccc(C#Cc4ccc(N)cc4)cc3c(=O)c2cc1OC	0.21	-0.01
Nc1nc(N2CCOCC2)cc(=O)[nH]1	1	1.9
CN1CCCC1CCNc1ccc2oc3ccccc3c(=O)c2c1 (stereo not drawn)	0.03	3.1
CCC(CC)C(=O)c1c[nH]c(C(=O)NCc2ccco2)c1	0.23	1.3
CC1Cc2cc(-c3csc(NC(=O)Cc4cccs4)n3)ccc2N1S(C)(=O)=O (stereo not drawn)	0.87	-0.26
COCCNc1nc2c(c(=O)n(Cc3ccccc3F)c(=O)n2C)n1C	1.2	-1.9
C=CCOc1nc2c(c(=O)n(C)c(=O)n2C)n1Cc1ccc(Cl)cc1	0.22	-0.02

Sorted by SMILES length (lowest first): some entries from above
SMILES	KCNQ2 pot	KCNQ2 pot baseline
Nc1nc(N2CCOCC2)cc(=O)[nH]1	1	1.9
Fc1ccccc1COc1ccccc1CNCc1ccncc1	0.61	1.2
O=C(Nc1ccccc1N1CCOCC1)c1ccc(Cl)nc1	1.5	-2.4
CN1CCCC1CCNc1ccc2oc3ccccc3c(=O)c2c1 (stereo not drawn)	0.03	3.1
COCCNc1nc2c(c(=O)n(Cc3ccccc3F)c(=O)n2C)n1C	1.2	-1.9
COc1cc2oc3ccc(C#Cc4ccc(N)cc4)cc3c(=O)c2cc1OC	0.21	-0.01
CC(C)Cc1nc(SCC(=O)N2CC(C)OC(C)C2)c2c(=O)n(C)c(=O)n(C)c2n1 (stereo not drawn)	1.9	0.14

(listing goes on)
SMILES	KCNQ2 pot	KCNQ2 pot baseline
CC(=O)O/N=C/c1c(N2CCOCC2)n(C)c2ccccc12	0.36	-2.5
CC(=O)Oc1ccc2c(=O)c(-c3ccccc3)coc2c1	1.2	-0.64
CC(C)Cn1c(-c2cc([N+](=O)[O-])ccc2Cl)nc2c1c(=O)[nH]c(=O)n2Cc1ccccc1	7.4*	-2.6*
NS(=O)(=O)c1ccc(CCNC(=O)CCCNC(=O)c2ccc(Cl)cc2)cc1	1.8	0.9
COc1ccc(/C=N/NC(=S)Nc2ccccc2)cc1COc1cccc(C)c1C	0.36	-0.45
CCOC(=O)Cn1nc(-c2ccc(F)cc2)oc1=O	1.3	-0.71
COc1ccccc1NC(=O)Cc1nnc(SCC(=O)Nc2ccc(F)cc2F)n1C	0.87	-0.38
COc1ccc2[nH]c3c(=O)n(/N=C/[C@H]4C(C)C=C(C)CC4C)c(=O)[nH]c3c2c1 (stereo partly drawn)	1.4	-1.1
O=C(O)Cn1c(=O)cnc2ccccc21	1.1	-1
CCc1noc(C)c1C(=O)N1CCCC(CCC(=O)NCc2ccc(F)c(F)c2)C1 (stereo not drawn)	0.93	-2
O=C(Oc1ccc(Cl)cc1)c1ccc(N2CCOCC2)c([N+](=O)[O-])c1	1.6	-0.06
CC(=O)Cn1ncc(N(C)Cc2ccccc2)c(Cl)c1=O	0.42	-0.44
Cn1cnnc1SCc1ccccc1	0.16	-0.94
Cc1nc(NC(=O)CSc2nnc(-c3ccncc3)n2C)sc1C	0.33	1.6
CCCCNC(=O)c1ccc2c(c1)C(=O)N(Cc1ccncc1)C2=O	2.1	0.47
Cc1c2n(c3ccccc13)CCN(C)C2	0.49	-0.01
CC1CCN(c2ccc(C(=O)O)cc2)CC1	0.03	-0.3
C/C(=N\NC(=O)C(c1ccncc1)N1CCOCC1)c1ccc(Br)cc1 (stereo not drawn)	0.02	-0.63
CC1(c2ccccc2)NC(=O)N(CC(=O)NC(=O)NCc2ccco2)C1=O (stereo not drawn)	0.25	0.26
COc1ccc(NC(=O)c2cc(-c3ccccc3O)n[nH]2)cc1Cl	0.01	1.5
CC1(NC(=O)c2cccc(S(=O)(=O)N3CCN(c4ccc(F)cc4)CC3)c2)CCS(=O)(=O)C1 (stereo not drawn)	0.01	-1.4
Cc1cc(N2CCN(c3cccc(C(F)(F)F)c3)CC2)n2ncnc2n1	0.71	0.08
O=C(CSc1nc2ccccc2s1)N/N=C/c1ccco1	2.6	-0.34
O=C(c1cc(-c2ccc(Cl)c(Cl)c2)on1)N1CCOCC1	0.52	0.25
O=C(COC(=O)c1nc(Cl)ccc1Cl)NC1CCCCCC1	1.9	2.2
Cn1c(=O)c2c(SCc3ccccc3)nc(C3CC3)nc2n(C)c1=O	0.79	1.4
COc1ccc(N(C(C)C(=O)NCCSCc2cccc(Cl)c2)S(C)(=O)=O)cc1 (stereo not drawn)	0.62	-1.5
COc1ccc(-c2csc(NC(C)c3nc4cc(Cl)c(Cl)cc4n3CCCO)n2)cc1 (stereo not drawn)	0.05	-0.27
O=C(CSc1nncn1-c1ccccc1)Nc1ccc(N2CCOCC2)cc1	1.6	0.76
O=C1CC(O)(C(F)F)Oc2ccc3ccccc3c21 (stereo not drawn)	0.79	-0.68
CCOC(=O)Cc1csc(NC(=O)c2cc(OC)cc(OC)c2)n1	1	-0.9
O=C(CCCCCN1C(=O)c2cccc3cccc(c23)C1=O)NCCCO	2.8	-1.8
CC(OC(=O)c1ccc2noc(-c3ccccc3)c2c1)C(N)=O (stereo not drawn)	1.1	-1.1
CC(=O)Nc1ccc(C(=O)OCC(=O)c2ccc(C)c([N+](=O)[O-])c2)cc1	0.57	-1.5
CCOc1cc(C(=S)N2CCOCC2)ccc1O	1.9	-1.2
COc1cccc(CN2CCC(C(=O)N3CCN(Cc4ccc5c(c4)OCO5)CC3)CC2)c1	1.4	-0.39
O=C(NCC1CCCO1)c1ccc(Cl)c(S(=O)(=O)N2CCCCC2)c1 (stereo not drawn)	1.7	-0.01
Cc1ccc(S(=O)(=O)NCCC(=O)Oc2ccc3ccc(=O)oc3c2)cc1	0.46	2
Cc1cccc(NC(=O)CN(C)S(=O)(=O)c2ccccc2)n1	0.36	0.44
COc1cc2[nH]c(=O)c(C(=O)NCc3ccccc3Cl)c(O)c2cc1OC	0.19	-0.85
CCc1ccc(NC(=O)CSc2nccn(-c3ccc4c(c3)OCCO4)c2=O)cc1	4.2	0.62
Cc1cc(Cl)ccc1N=c1ssnc1Cl	1	0.09
CCCCN(C(=O)Cn1nnc2ccccc21)C(C(=O)NCCOC)c1ccccc1 (stereo not drawn)	0.45	-0.89
COc1ccc(OC)c(S(=O)(=O)Nc2ccccc2C)c1	2.7	0.75
O=C(C1CCC1)N1CCN(S(=O)(=O)c2cccc(F)c2)CC1	1.4	2.1
CCNC(=S)NC1CC2CCC(C1)N2Cc1ccccc1 (stereo not drawn)	0.72	-0.7
O=C(NCCOc1ccccc1)c1ccccc1Cl	0.72	-1.5
C=CCOc1cccc(C2C(C(=O)c3ccco3)=C(O)C(=O)N2Cc2cccnc2)c1 (stereo not drawn)	1.3	-0.7

In the list so far, four have a furan ring, fused or not:
SMILES	KCNQ2 pot	KCNQ2 pot baseline
CCC(CC)C(=O)c1c[nH]c(C(=O)NCc2ccco2)c1	0.23	1.3
CC1(c2ccccc2)NC(=O)N(CC(=O)NC(=O)NCc2ccco2)C1=O (stereo not drawn)	0.25	0.26
O=C(CSc1nc2ccccc2s1)N/N=C/c1ccco1	2.6	-0.34
C=CCOc1cccc(C2C(C(=O)c3ccco3)=C(O)C(=O)N2Cc2cccnc2)c1 (stereo not drawn)	1.3	-0.7

Remaining list, next part
SMILES	KCNQ2 pot	KCNQ2 pot baseline
O=C(CCc1nnc2n(CCc3ccccc3)c(=O)c3ccccc3n12)NCCCN1CCCCC1	1.2	1.4
Cc1cc(/C=C2\SC(N)=NC2=O)c(C)n1-c1ccc(F)cc1	0.15	-0.34
Cn1c(SCC(=O)NC(=O)c2cccc([N+](=O)[O-])c2)nnc1-c1ccc(F)cc1	0.05	1.2
CCn1nc(C)c(CNC(=O)C2CCC(=O)N(CCc3ccc(Cl)cc3)C2)c1C (stereo not drawn)	1.8	0.09
CCOC(=O)c1ccc(NC(=O)Cn2ccc([N+](=O)[O-])n2)cc1	0.06	-1.4
Cc1cccc(Nc2sc(C(=O)c3cc4cc(Cl)ccc4o3)c(N)c2C#N)c1	0.25	-0.82
CC(=O)Nc1ccc(NS(=O)(=O)c2cc(Cl)sc2Cl)cc1	0.02	2.3
Cc1ccsc1/C=N/NC(=O)c1cccs1	2.3	1.5
O=C(O)CC(c1ccccc1)n1cnnn1 (stereo not drawn)	0.28	0.01
COc1ccc([C@@H]2[C@@H]3C(=O)N(C(C)(C)C)C(=O)[C@@H]3[C@]3(Cc4ccc(Cl)cc4)C(=O)N(c4cccc(Br)c4)C(=O)N23)cc1	0.45	0.96
O=C(CSc1nnc2c(n1)[nH]c1ccccc12)NCc1ccco1	0.16	-0.01
O=C1CN(C(=O)N[C@@H](Cc2ccccc2)C(=O)N[C@H](C(=O)O)c2ccccc2)c2ccccc2N1	0.15	-0.18
CCN(/N=C/c1ccccc1)c1cc(=O)n(C)c(=O)[nH]1	1.6	-0.03
COC(=O)CC(NC(=O)CN1CCN(c2ccc(F)cc2)CC1)c1cccc(F)c1 (stereo not drawn)	0.29	0.39
O=C(NCCS(=O)(=O)N1CCCC1)c1ccccc1	1.4	-2.8
O=C(COc1ccccc1Cl)N1CCN(c2ccc([N+](=O)[O-])c(N3CCCCC3)c2)CC1	0.07	-0.27
O=C(COc1ccc(Br)cc1)NCCNC(=O)c1ccncc1	0.08	0.54
O=C(Oc1ccc(N(C(=O)c2ccncc2)S(=O)(=O)c2ccc(F)cc2)cc1)c1ccncc1	1	0.05
CCc1ccccc1NC(=O)Cn1nnc(C(=O)NCc2cccc(OC)c2)c1N	0.63	1
CC1CCc2c(sc(NC(=O)/C=C/c3cccs3)c2C(=O)O)C1 (stereo not drawn)	4.4	-0.23
O=C(CN1C(=O)c2ccc([N+](=O)[O-])cc2C1=O)NC1CCS(=O)(=O)C1 (stereo not drawn)	0.11	0.42
CC1=C(C(=O)OCC2CCCO2)C(c2coc3ccc(C)cc3c2=O)C2=C(CCCC2=O)N1 (stereo not drawn)	0.28	-3.5
CCOc1ccc(-c2ncncc2-c2ccc(OC)c(OC)c2)c(O)c1	1.5	-0.68
COc1ccc(NC(=O)CCN2C(=O)/C(=C/c3ccc4c(c3)OCO4)SC2=S)cc1	1.9	-2.5
O=C(O)CCCc1nc2ccccc2s1	1.6	-1.6
CCOc1ccc(OCC)c(NC(=O)C2CCN(S(=O)(=O)c3c(C)[nH]c(=O)[nH]c3=O)CC2)c1	0.04	1.3
Cc1cc(NC(=O)COC(=O)c2ccccc2[N+](=O)[O-])no1	0.18	1.3
Cn1c(=O)c2c(nc(Br)n2CCSc2nnnn2-c2ccccc2)n(C)c1=O	2.5	-1.7
COc1ccc(F)cc1S(=O)(=O)Nc1ccncc1	0.38	-1.2
C/C(=N/NC(=O)c1ccncc1)c1ccc(NC(=O)c2ccccc2)cc1	0.08	2.1
O=C(NNc1cc(N2CCOCC2)nc(N2CCOCC2)n1)C12CC3CC(CC(C3)C1)C2	0.04	0.01
COc1ccc(CC(=O)NC(C)CCc2ccccc2)cc1 (stereo not drawn)	0.06	0.39
Cc1ccc(NC(=O)CSCc2cc(=O)n3cc(C)sc3n2)cc1	0.7	-0.51
C/C(=N\NC(=O)Cc1cccn1C)c1cccc2ccccc12	1.1	0.56
COc1ccccc1NC(=O)Nc1nc(CC(=O)Nc2ccccc2F)cs1	0.67	0.31
Nc1c(-c2ccc(Cl)cc2)cnc2c(-c3ccc(F)cc3)cnn12	1.8	0.76
COc1ccc(Cl)cc1C(=O)Nn1cnnc1	0.16	1.9
COc1ccc(Cl)cc1Nc1nc2ccc(C)cc2n2cnnc12	0.87	0.24
CCOC(=O)N1CCC(NS(=O)(=O)c2cc(C(=O)OC)n(C)c2)CC1	0.5	-0.16
O=C(/C=C/c1ccccc1)NC1CC2CCCC(C1)N2Cc1ccccc1 (stereo not drawn)	0.07	2
O=C(/C=C\c1ccc2c(c1)OCO2)Nc1nnc(SCC(=O)OCc2ccccc2)s1	0.16	0.1
COC(=O)C1CCN(C(=O)[C@H](C)NC(=O)C2CC(=O)N(c3ccc(F)cc3)C2)CC1 (stereo partly drawn)	0.79	-0.21
CC(C)(C)C(=O)Nc1nnc(SCC(=O)NCc2cccs2)s1	0.63	-0.05
CN1CCN(c2oc(-c3ccccc3Cl)nc2S(=O)(=O)c2ccccc2)CC1	0.71	-0.31
CN1CCc2c(sc(NC(=O)c3cc4cc([N+](=O)[O-])ccc4s3)c2C(N)=O)C1	1	-0.1
O=C(CN1C(=O)CSc2ccccc21)Nc1ccccc1C(=O)N1CCOCC1	0.04	0.83
CC(=O)NC(C(=O)NCC(N)=O)C(C)C (stereo not drawn)	1.6	0.65
O=C(/C=C/c1ccc2c(c1)OCO2)NCCS(=O)(=O)N1CCN(c2ccc(F)cc2)CC1	2.9	0.64
CCOC(=O)N1CCN(c2c(-c3ccc(C)cc3)c(=O)c2=O)CC1	0.89	4.7
CN(C)CCCNCC(=O)NN(c1ccccc1)c1ccccc1	1.5	0.66
CSc1cccc(NC(=S)N2CCC(N(C)C3CCCCCC3)CC2)c1	0.18	0
Cc1ccc(C(=O)COC(=O)COc2ccc(C)c(C)c2)cc1	1.5	-0.52
CC(NC(=O)C(=O)N1CCOCC1)C(c1cccs1)N1CCN(c2ccc(F)cc2)CC1 (stereo not drawn)	0.07	-0.3
Cc1ccc(CNC(=O)CCN2C(=O)[C@@H]3Cc4ccccc4CN3C2=O)cc1	0.15	-0.48
CC(=O)c1cc(CN2CCC(C(=O)Nc3cccc(-c4cscn4)c3)CC2)cs1	0.32	-0.44

Screening results (PubChem)
